AF4-AF9 inh: blocks AF4 peptide binding to human AF9 | P42568 | AlphaScreen, biotin-AF4 peptide binding to FLAG-AF9 | inhibition, % at 10 µM | 0.47% of 350,000 active;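 active = every replicate reaching a set inhibition limit, whatever the replicate mean, cut at about 25% in these data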;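 note: 0% = plate neutral control median and 100% = total signal loss; the record names both 10 and 1 µM as test concentration; the first replicate is given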
Target sequence (P42568 whole entry, looked up): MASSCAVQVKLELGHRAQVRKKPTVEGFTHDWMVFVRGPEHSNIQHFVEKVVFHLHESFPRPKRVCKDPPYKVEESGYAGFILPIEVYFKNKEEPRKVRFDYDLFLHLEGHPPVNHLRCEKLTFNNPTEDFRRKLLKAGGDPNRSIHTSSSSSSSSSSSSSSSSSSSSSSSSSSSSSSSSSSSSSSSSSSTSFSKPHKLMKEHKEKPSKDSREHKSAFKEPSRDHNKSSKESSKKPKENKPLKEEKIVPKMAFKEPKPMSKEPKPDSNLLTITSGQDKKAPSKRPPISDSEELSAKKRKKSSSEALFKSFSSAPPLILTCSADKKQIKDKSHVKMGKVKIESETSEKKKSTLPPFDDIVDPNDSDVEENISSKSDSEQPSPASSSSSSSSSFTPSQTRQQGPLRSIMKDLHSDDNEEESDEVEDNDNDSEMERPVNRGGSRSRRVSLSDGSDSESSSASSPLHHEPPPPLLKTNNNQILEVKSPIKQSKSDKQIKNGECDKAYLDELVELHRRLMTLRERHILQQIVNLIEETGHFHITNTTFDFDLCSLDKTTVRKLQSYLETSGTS
* = called active by the depositor; & = joins results of further samples. Some of the compounds tested; count on the stated rates, not on these rows.

SMILES	AF4-AF9 inh
C[C@H](O)C#Cc1cnc2c(c1)C(=O)N([C@@H](C)CO)C[C@H](C)[C@@H](CN(C)C(=O)c1ccncc1)O2	-1.9
CO[C@@H]1CN(C)C(=O)c2cc(NC(=O)c3cc(C)on3)ccc2OC[C@H](C)N(CC2CC2)C[C@@H]1C	-2.1
C[C@H](CO)N1C[C@H](C)[C@@H](CN(C)C(=O)Nc2ccccc2)Oc2ccc(NS(=O)(=O)c3ccc(Cl)cc3)cc2CC1=O	-0.6
COc1ccc(S(=O)(=O)Nc2ccc3c(c2)[C@@H]2C[C@H](CC(=O)NCC4CC4)O[C@@H](CO)[C@@H]2O3)cc1	-0.3
C[C@@H]1CN([C@H](C)CO)C(=O)c2cc(-c3cccc(F)c3)cnc2O[C@H]1CN(C)C(=O)c1cccc(F)c1	2.0
COc1ccc(-n2nnnc2C(c2ccccc2)N2CCN(C/C=C/c3ccccc3)CC2)cc1 (stereo not given)	7.6
O=C(C[C@@H]1C=C[C@@H](NC(=O)C2CCC2)[C@H](CO)O1)NCCCN1CCOCC1	-0.3
N#Cc1cccc(-c2ccc(C3[C@@H]4CN(C(=O)Nc5ccccc5)C[C@H]3N4)cc2)c1 (stereo not given in full)	-7.3&-0.8
CN1c2ccc(Br)cc2[C@@H]2[C@@H](CCN2S(=O)(=O)c2cccc(F)c2)[C@@H]1CO	0.3
COc1ccc(CC(N)c2csc(NC(=O)Nc3ccccc3Oc3ccccc3)n2)cc1 (stereo not given)	4.7
COc1ccc2c(c1)c[n+](C)c1c3cc(OC)c(OC)cc3ccc21	2.8
COCC(=O)Nc1ccc2c(c1)[C@@H]1C[C@@H](CC(=O)NCc3cccc(F)c3)O[C@H](CO)[C@@H]1O2	0.2
COc1ccc(NC(=O)N(C)C[C@H]2OCCCC[C@@H](C)Oc3ccc(NS(C)(=O)=O)cc3C(=O)N([C@H](C)CO)C[C@H]2C)cc1	-3.9
O=C(Nc1ccc(Cl)cc1)N1C[C@H]2[C@@H](c3ccccc31)[C@@H](CO)N2C(=O)C1CC1	-0.1
Cc1noc(C)c1NC(=O)N(C)C[C@@H]1Oc2c(NC(=O)c3ccncc3)cccc2C(=O)N([C@@H](C)CO)C[C@@H]1C	-1.6
COc1ccc2c3c(n(C)c2c1)[C@@H](CO)N(C(=O)C1CCC1)CC31CCN(C(=O)Nc2cccc(F)c2)CC1	0.8
C[C@H]1CN([C@@H](C)CO)C(=O)c2cc(NC(=O)Nc3ccc(F)cc3)ccc2O[C@@H]1CN(C)S(C)(=O)=O	-2.5
Cc1ccc(S(=O)(=O)N(C)C[C@H]2OCCCC[C@H](C)Oc3ccc(NC(=O)Nc4ccc5c(c4)OCO5)cc3C(=O)N([C@@H](C)CO)C[C@H]2C)cc1	2.2
COc1ccc(NC(=O)N(C)C[C@H]2Oc3ccc(NC(=O)Cc4cn(C)c5ccccc45)cc3CC(=O)N([C@@H](C)CO)C[C@H]2C)cc1	3.0
C[C@H]1CN([C@@H](C)CO)C(=O)Cc2cc(NS(=O)(=O)c3ccc(F)cc3)ccc2O[C@@H]1CN(C)Cc1ccc(C(=O)O)cc1	-3.1
C[C@@H]1CN([C@@H](C)CO)C(=O)Cc2cc(NC(=O)NC3CCCCC3)ccc2O[C@H]1CN(C)Cc1ccccc1	9.3
Cc1noc(C)c1S(=O)(=O)N(C)C[C@@H]1OCCCC[C@@H](C)Oc2ccc(NC(=O)Cc3ccccc3)cc2C(=O)N([C@H](C)CO)C[C@H]1C	-2.5
COc1cccc(S(=O)(=O)N[C@@H]2CC[C@H](CCNC(=O)Nc3cc(F)ccc3F)O[C@@H]2CO)c1	4.3
Cc1noc(C)c1S(=O)(=O)Nc1cccc2c1O[C@H](CN(C)Cc1ccc(Oc3ccccc3)cc1)[C@H](C)CN([C@H](C)CO)C2=O	-1.2
C[C@H](CO)N1C[C@H](C)[C@H](CN(C)Cc2ccccc2C(F)(F)F)OCc2cnnn2CCCC1=O	1.1
Cc1noc(C)c1S(=O)(=O)Nc1ccc2c(c1)CC(=O)N([C@H](C)CO)C[C@@H](C)[C@H](CN(C)C)O2	-2.2
COc1cccc(CNC(=S)Nc2ccc3c(c2)c(=O)n(C)n3Cc2ccc(F)cc2)c1	-0.1
COCCNC(=O)C[C@H]1CC[C@H](NC(=O)NC2CCCCC2)[C@@H](CO)O1	1.6
CNC(=O)C[C@H]1CC[C@@H]2[C@H](COC[C@@H](O)CN2Cc2ccc(Cl)c(Cl)c2)O1	-13.8
C[C@H](CO)N1C[C@H](C)[C@H](CN(C)C(=O)Nc2ccc(F)cc2)Oc2cc(C#CC3(O)CCCC3)ccc2S1(=O)=O	2.5
COc1ccccc1CNC(=O)C[C@H]1CC[C@@H]2[C@H](COc3ccc(NC(=O)Nc4ccc(F)c(F)c4)cc3C(=O)N2C)O1	-2.5
CCS(=O)(=O)Nc1ccc2c(c1)C(=O)N(C)C[C@@H](OC)[C@H](C)CN(Cc1ccccn1)[C@@H](C)CO2	-4.2
C[C@@H]1CN([C@H](C)CO)C(=O)c2cc(NC(=O)Nc3ccc(F)cc3)ccc2O[C@@H]1CN(C)C(=O)Nc1ccccc1	-1.1
CCCC(=O)N1C[C@H]2[C@@H](c3ccccc31)[C@@H](CO)N2C(=O)Nc1ccccc1	-1.9
CC(C)NC(=O)N(C)C[C@@H]1Oc2c(NS(=O)(=O)c3cn(C)cn3)cccc2C(=O)N([C@@H](C)CO)C[C@H]1C	-3.3
Cc1ccc(S(=O)(=O)N(C)C[C@H]2OCCCC[C@H](C)Oc3ccc(NS(=O)(=O)c4ccc(F)cc4)cc3C(=O)N([C@@H](C)CO)C[C@H]2C)cc1	-2.7
COc1ccc(C(=O)C(=O)N2CCN(c3ccc(C)cc3)CC2)cc1OC	3.0
C/C=C/c1cnc2c(c1)C(=O)N([C@@H](C)CO)C[C@H](C)[C@@H](CN(C)S(=O)(=O)c1ccccc1F)O2	-1.0
O=C(NC1CCCCC1)C(CCc1ccccc1)n1c(=O)c(-c2ccccc2)nc2ccccc21 (stereo not given)	5.4
O=C(c1ccccc1)N1CC[C@@H]2[C@H](CO)Nc3ccc(C#Cc4cccnc4)cc3[C@@H]21	-2.7
C[C@H](CO)N1C[C@H](C)[C@@H](CN(C)C(=O)Nc2ccc(F)cc2)OCCCC[C@H](C)Oc2ccc(NS(=O)(=O)c3ccccc3)cc2C1=O	1.7
CC1(C)CCC(=O)N2CC[C@H]3c4cc5ccccc5nc4C[C@@H]1[C@H]32	-0.5
Cc1ccc(NC(=O)C2(C)CCN2CCc2ccccc2)cc1 (stereo not given)	-2.4
CO[C@@H]1CN(C)C(=O)c2cc(NC(=O)c3ccc(F)cc3)ccc2OC[C@H](C)N(C(C)=O)C[C@H]1C	-3.1
Cc1ccc(-c2ccc([C@@H]3[C@@H](CO)N4C(=O)CN(C(=O)c5ccc(F)cc5)C[C@H]34)cc2)cc1	2.3
O=C(C[C@H]1CC[C@H]2[C@@H](COC[C@H](O)CN2S(=O)(=O)c2ccc(F)cc2)O1)NCC1CC1	3.7
COc1ccc(S(=O)(=O)N(C)C[C@H]2OCCCC[C@H](C)Oc3ccc(NS(=O)(=O)c4ccc(Cl)cc4)cc3C(=O)N([C@H](C)CO)C[C@H]2C)cc1	-2.3
C[C@@H]1CN([C@@H](C)CO)C(=O)c2cc(NC(=O)Nc3ccccc3)ccc2O[C@@H](C)CCCCO[C@@H]1CN(C)CC1CCCCC1	0.3

An excerpt from above in order of count of non-hydrogen atoms, ascending:
SMILES	AF4-AF9 inh
Cc1ccc(NC(=O)C2(C)CCN2CCc2ccccc2)cc1 (stereo not given)	-2.4
CC1(C)CCC(=O)N2CC[C@H]3c4cc5ccccc5nc4C[C@@H]1[C@H]32	-0.5
COc1ccc(C(=O)C(=O)N2CCN(c3ccc(C)cc3)CC2)cc1OC	3.0
O=C(c1ccccc1)N1CC[C@@H]2[C@H](CO)Nc3ccc(C#Cc4cccnc4)cc3[C@@H]21	-2.7
Cc1ccc(-c2ccc([C@@H]3[C@@H](CO)N4C(=O)CN(C(=O)c5ccc(F)cc5)C[C@H]34)cc2)cc1	2.3
C/C=C/c1cnc2c(c1)C(=O)N([C@@H](C)CO)C[C@H](C)[C@@H](CN(C)S(=O)(=O)c1ccccc1F)O2	-1.0
O=C(NC1CCCCC1)C(CCc1ccccc1)n1c(=O)c(-c2ccccc2)nc2ccccc21 (stereo not given)	5.4
CC(C)NC(=O)N(C)C[C@@H]1Oc2c(NS(=O)(=O)c3cn(C)cn3)cccc2C(=O)N([C@@H](C)CO)C[C@H]1C	-3.3
C[C@@H]1CN([C@@H](C)CO)C(=O)c2cc(NC(=O)Nc3ccccc3)ccc2O[C@@H](C)CCCCO[C@@H]1CN(C)CC1CCCCC1	0.3
C[C@H](CO)N1C[C@H](C)[C@@H](CN(C)C(=O)Nc2ccc(F)cc2)OCCCC[C@H](C)Oc2ccc(NS(=O)(=O)c3ccccc3)cc2C1=O	1.7
Cc1ccc(S(=O)(=O)N(C)C[C@H]2OCCCC[C@H](C)Oc3ccc(NS(=O)(=O)c4ccc(F)cc4)cc3C(=O)N([C@@H](C)CO)C[C@H]2C)cc1	-2.7

Next entries follow.
SMILES	AF4-AF9 inh
CCCOc1ccc(F)cc1-c1cc(C(=O)Nc2ccc(OC)c(OC)c2)[nH]n1	1.5
CCC(=O)N(C)C[C@H]1Oc2cc(C#Cc3cccnc3)ccc2S(=O)(=O)N([C@@H](C)CO)C[C@@H]1C	0.3
O=C1CC[C@@H]2CC3(C[C@@H]4CCN1[C@H]24)Nc1ccccc1NC3=NC1CCCCC1 (stereo not given in full)	2.3
C[C@H](O)C#Cc1cnc2c(c1)C(=O)N([C@@H](C)CO)C[C@@H](C)[C@H](CN(C)Cc1ccccn1)O2	-1.1
COc1ccccc1CN1CC[C@@H]2[C@@H](CO)Nc3ccc(-c4ccc(C(=O)N(C)C)cc4)cc3[C@@H]21	-1.8
O=C(C[C@@H]1C[C@H]2c3cc(NC(=O)Nc4ccccc4F)ccc3O[C@H]2[C@H](CO)O1)NCc1ccc2c(c1)OCO2	2.1
O=C(Nc1ccccc1F)N[C@H]1CC[C@H](CC(=O)N2CCCCC2)O[C@@H]1CO	-3.0
C[C@H]1CN([C@@H](C)CO)C(=O)Cc2cc(NC(=O)Nc3ccccc3)ccc2O[C@H]1CN(C)Cc1ccc(C(=O)Nc2ccccc2N)cc1	0.7
C[C@H]1CCCCO[C@H](CN(C)S(=O)(=O)c2cn(C)cn2)[C@@H](C)CN([C@@H](C)CO)C(=O)c2cc(NC(=O)Nc3ccccc3)ccc2O1	-5.2
C[C@@H]1CCCCO[C@@H](CN(C)C(=O)NC2CCCCC2)[C@@H](C)CN([C@@H](C)CO)C(=O)c2cc(NC(=O)Cc3ccccc3)ccc2O1	1.3
C[C@H](CO)N1C[C@H](C)[C@H](CN(C)C)Oc2ccc(NS(=O)(=O)c3ccccc3)cc2C1=O	0.2
CCc1cnc(N2[C@H](C#N)[C@H](c3ccc(C#CCC4CCCC4)cc3)[C@H]2CO)s1	5.5
Cc1ccccc1S(=O)(=O)NC(=O)C1(C)CCN1C(=O)Cc1ccccc1Cl (stereo not given)	-2.8
CC1(C(=O)NS(=O)(=O)c2ccc(Cl)cc2)CCN1C(=O)Cc1ccc(-c2ccccc2)cc1 (stereo not given)	1.0
O=C(C[C@H]1CC[C@@H](NC(=O)c2cccc(F)c2)[C@@H](CO)O1)NCc1ccc(Oc2ccccc2)cc1	0.6
C[C@H](CO)N1C[C@H](C)[C@H](CN(C)C(=O)Nc2cccc3ccccc23)Oc2c(NC(=O)C3CCOCC3)cccc2C1=O	0.1
CCC(=O)N1CC(=O)N2[C@H](CO)[C@H](c3ccc(-c4ccccc4F)cc3)[C@@H]2C1	0.4
CCC(=O)N(C)C[C@@H]1Oc2ncc(-c3ccc(C(=O)N(C)C)cc3)cc2C(=O)N([C@@H](C)CO)C[C@H]1C	0.0
C[C@@H]1CN([C@@H](C)CO)C(=O)c2cccc(NC(=O)c3cnccn3)c2O[C@@H]1CN(C)Cc1ccc2c(c1)OCO2	-0.1
C[C@@H]1CN([C@H](C)CO)C(=O)c2cc(-c3ccccc3F)cnc2O[C@@H]1CN(C)C(=O)C1CCOCC1	-9.4
C[C@H](CO)N1C[C@H](C)[C@@H](CN(C)Cc2ccccc2)OCCCC[C@H](C)Oc2ccc(NC(=O)Cc3ccccc3)cc2C1=O	0.3
COC(=O)[C@]12CCCCC=C1N(Cc1ccccc1)C(=O)[C@H](CC(=O)NCCc1ccccc1OC)C2	-1.9
Cc1noc(C)c1NC(=O)N(C)C[C@H]1OCCCC[C@H](C)Oc2ccc(NC(=O)CCC(F)(F)F)cc2C(=O)N([C@H](C)CO)C[C@@H]1C	1.2
O=C(C[C@@H]1CC[C@@H](NC(=O)Nc2cc(F)ccc2F)[C@@H](CO)O1)Nc1ccc(-c2ccccc2)cc1	-13.5
O=C(C[C@@H]1C=C[C@H](NS(=O)(=O)c2ccccc2)[C@H](CO)O1)NCc1ccncn1	-2.6
CC1(C(=O)Nc2ccc3ccccc3c2)CCC(=O)N1C1CCN(Cc2ccccc2)CC1 (stereo not given)	5.6
O=C(NCc1cc(Cl)cc(Cl)c1)c1csc([C@@H]2O[C@H](CO)[C@H](O)[C@H](O)[C@H]2O)n1	0.3
COc1ccc(-c2oc3c(c2C#CCCCCO)C(OCCO)CC3)cc1 (stereo not given)	1.4
C[C@H]1CN([C@@H](C)CO)C(=O)c2c(c3ccccc3n2C)-c2ccccc2CO[C@H]1CN(C)Cc1ccccc1	3.6
C[C@H](CO)N1C[C@H](C)[C@@H](CN(C)S(=O)(=O)c2cn(C)cn2)Oc2c(NC(=O)C3CC3)cccc2C1=O	-0.4
Cc1ccc2nc(-c3ccccn3)c(N)n2c1	7.0
C/C=C/c1cnc2c(c1)C(=O)N([C@H](C)CO)C[C@H](C)[C@@H](CN(C)C(=O)Nc1ccc(OC)cc1)O2	-3.4
C[C@H](CO)N1C[C@H](C)[C@H](CN(C)C(=O)c2ccc(F)cc2)Oc2ncc(C3=CCCCC3)cc2C1=O	-2.0
C/C=C/c1ccc([C@H]2[C@@H](CO)N(C(=O)C3CC3)[C@H]2CNC(=O)CN(C)C)cc1	-0.7
O=C(C[C@@H]1CC[C@H](NC(=O)Nc2ccccc2F)[C@@H](CO)O1)NCc1ccc(F)cc1	-11.7
COC(=O)C[C@H]1C[C@H]2c3cc(NC(=O)CN(C)C)ccc3O[C@H]2[C@H](CO)O1	-18.9
